DUX4 inh: inhibitors of DUX4-driven ZSCAN4 reporter expression, primary screen, 293T cells, Gaussia and Italica luciferase; 293T-iDUX4 ZSCAN4-Gaussia luciferase reporter, 24 h; stronger effect = lower value; activity change, negative = inhibition, % (no concentration beside the values); 37,000 compounds, 0.8% hits; AID 1224904, 2016;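 active = -10% or lower and over 25 points stronger than a control reporter; inconclusive = -10% or lower with a smaller gap; inactive = above -10%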;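 note: 0% = median of neutral control wells and -100% = median of positive control wells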
DUX4 inh difference: also measured in DUX4 inh; calls as there; Gaussia minus Italica difference, %; measured here: selective DUX4 reporter inhibition;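 worked out from the two reporters; negative = selective loss of the DUX4 reporter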
DUX4 inh control: second read-out of DUX4 inh, no call of its own (marks repeat the call); activity change, negative = inhibition, %; measured here: Italica tet-on control reporter;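 0 = neutral control and -100 = positive control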
The depositor's hits bear a star; ? = inconclusive; . = not tested or not shown. This is a subset, so the mix of outcomes need not match the whole.

no.	structure	DUX4 inh	DUX4 inh difference	DUX4 inh control
1	CS(=O)(=O)Nc1ccc2c(c1)[C@@H]1C[C@H](CC(=O)O)O[C@@H](CO)[C@@H]1O2	2	-2	4.4
2	CNC(=O)C[C@@H]1CC[C@@H]2[C@H](COC[C@H](O)CN2Cc2ccc(C(F)(F)F)cc2)O1	0	-1	0.2
3	C[C@@H]1CN([C@H](C)CO)C(=O)c2cc(NC(=O)c3ccncc3)ccc2O[C@H]1CN(C)S(=O)(=O)c1ccc(Cl)cc1	-1	-4	2.8
4	O=C(NC[C@H]1[C@H](c2ccccc2)[C@H](CO)N1C(=O)C1CC1)NC1CCCC1	0	-4	3.7
5	CC(=O)NC[C@H]1[C@H](c2ccc(-c3cccc(F)c3)cc2)[C@@H](CO)N1C(C)=O	-5	-4	-0.5
6	COc1cccc(-c2ccc3c(c2)[C@H]2[C@H](CCN2S(=O)(=O)c2cccc(OC)c2)[C@H](CO)N3)c1	?	.	.
7	O=C(NC1CCC1)[C@H]1[C@H](CO)[C@H]2Cn3c(ccc(-c4ccccc4)c3=O)[C@@H]1N2Cc1cocn1	0	-4	4.8
8	O=C(Nc1ccc(C(F)(F)F)cc1)N1C[C@@H]2N[C@H](C1)C2c1ccc(-c2cccnc2)cc1 (stereo partly specified)	-1	-7	6.4
9	COCC(=O)N1[C@@H](CO)[C@@H](c2ccccc2)C12CN(C(=O)NC1CCCCC1)C2	5	-6	10
10	C[C@H]1CN([C@@H](C)CO)C(=O)c2cccc(NC(=O)c3cnccn3)c2O[C@@H]1CN(C)C(=O)Nc1ccc2c(c1)OCO2	-2	3	-5.0
11	COc1ccc(C#Cc2ccc([C@H]3[C@@H](CO)N4C(=O)CN(C(=O)c5ccc(F)cc5)C[C@@H]34)cc2)cc1	?	.	.
12	CN1C[C@H](O)COC[C@@H]2O[C@@H](CC(=O)N3CCN(c4ccccc4)CC3)CC[C@H]21	4	7	-3.6
13	COc1ccc2c3c(n(C)c2c1)[C@H](CO)N(Cc1ccc(F)cc1)CC31CCN(CC2CC2)CC1	?	.	.
14	O=C(C1CCC1)N1CC2(C1)[C@H](c1ccccc1)[C@H](CO)N2Cc1cccnc1	4	6	-2.1
15	CCc1cnc(N2[C@H](C#N)[C@@H](c3ccc(C4=CCCC4)cc3)[C@@H]2CO)s1	3	1	2.2
16	Cc1noc(C)c1NC(=O)N(C)C[C@@H]1OCc2cnnn2CCCC(=O)N([C@H](C)CO)C[C@@H]1C	6	7	-0.3
17	CN1C(=O)c2cc(NS(C)(=O)=O)ccc2OC[C@@H]2O[C@H](CC(=O)O)CC[C@@H]21	-1	-1	-0.3
18	CS(=O)(=O)N1C[C@H](O)COC[C@H]2O[C@@H](CC(=O)NC3Cc4ccccc4C3)CC[C@@H]21	9	3	5.4
19	CC(=O)N1[C@H](CO)[C@@H](c2ccccc2)[C@H]1CN(CC1CCC1)C(=O)CN(C)C	0	-3	3.1
20	COc1ccc(NC(=O)N2C[C@@H]3[C@H](c4ccccc42)[C@@H](CO)N3Cc2ccccn2)cc1	1	3	-2.4
21	C/C=C/c1cnc2c(c1)C(=O)N([C@@H](C)CO)C[C@@H](C)[C@@H](CN(C)C(=O)NC1CCCC1)O2	-4	-3	-1.2
22	CCC(=O)N1CC[C@H]2[C@@H]1c1cc(-c3ccccc3F)ccc1N(C)[C@H]2CO	10	28	-18
23	COC(=O)C[C@H]1CC[C@H]2[C@@H](COc3ccc(NC(=O)c4cnccn4)cc3C(=O)N2C)O1	-3	-4	1.1
24	COCC(=O)Nc1ccc2c(c1)[C@H]1C[C@H](CC(=O)N3CCc4ccccc4C3)O[C@@H](CO)[C@H]1O2	-4	0	-4.2
25	CCC(=O)N[C@@H]1CC[C@@H](CC(=O)NCc2ccccc2F)O[C@@H]1CO	10	5	4.8
26	COc1ccccc1CNC(=O)C[C@@H]1C[C@H]2c3cc(NC(=O)CN(C)C)ccc3O[C@H]2[C@@H](CO)O1	-2	-9	6.9
27	CCC(=O)N1[C@H](CO)[C@H](c2ccc(-c3cccnc3)cc2)[C@@H]1CN(C)C(C)=O	?	.	.
28	CO[C@H]1CC[C@H]2CCN(C)C(=O)[C@@H](C)[C@H](OC)CN(C)C(=O)c3cccc(C#N)c3OC[C@@H]1O2	-5	-5	-0.8
29	COc1ccccc1C#Cc1ccc([C@@H]2[C@@H](CO)N(C(=O)C3CC3)[C@H]2C#N)cc1	0	-1	1.4
30	COc1ccc(NC(=O)Nc2cccc3c2O[C@H](CN(C)C(=O)NC2CCCCC2)[C@H](C)CN([C@@H](C)CO)C3=O)cc1	-3	-9	6.3

Brought forward from above: three entries, then new ones.
no.	structure	DUX4 inh	DUX4 inh difference	DUX4 inh control
28	CO[C@H]1CC[C@H]2CCN(C)C(=O)[C@@H](C)[C@H](OC)CN(C)C(=O)c3cccc(C#N)c3OC[C@@H]1O2	-5	-5	-0.8
29	COc1ccccc1C#Cc1ccc([C@@H]2[C@@H](CO)N(C(=O)C3CC3)[C@H]2C#N)cc1	0	-1	1.4
30	COc1ccc(NC(=O)Nc2cccc3c2O[C@H](CN(C)C(=O)NC2CCCCC2)[C@H](C)CN([C@@H](C)CO)C3=O)cc1	-3	-9	6.3
31	CCNC(=O)C[C@@H]1CC[C@H]2[C@@H](COc3ccc(NC(=O)c4ccc5c(c4)OCO5)cc3C(=O)N2C)O1	6	4	2.6
32	CC(=O)N1[C@@H]2Cn3c(ccc(-c4ccccc4)c3=O)[C@H]1[C@@H](C(=O)N1CCN(C)CC1)[C@@H]2CO	9	7	2.0
33	Cc1ccccc1S(=O)(=O)N1CC(=O)N2[C@@H](CO)[C@H](c3ccc(C#CC4CC4)cc3)[C@@H]2C1	12	4	8.4
34	COCC(=O)Nc1ccc2c(c1)C(=O)N(C)[C@H]1CC[C@@H](CC(=O)NCc3ccccc3Cl)O[C@H]1CO2	0	-1	0.6
35	O=C(C[C@H]1CC[C@H]2[C@@H](COC[C@H](O)CN2Cc2ccc(Oc3ccccc3)cc2)O1)N1CCc2ccccc2C1	?	.	.
36	COc1cccc(-c2ccc([C@@H]3[C@@H](C#N)N(C(=O)c4ccccn4)[C@H]3CO)cc2)c1	-3	-5	1.4
37	O=C(C[C@@H]1CC[C@@H]2[C@H](COC[C@@H](O)CN2Cc2ccc(F)cc2)O1)NCc1ccncn1	2	3	-1.0
38	CCCNC(=O)C[C@H]1CC[C@H]2[C@@H](COC[C@@H](O)CN2Cc2ccncc2)O1	8	4	3.4
39	COc1cccc(-c2ccc([C@@H]3[C@@H](CO)N4C(=O)CN(C(=O)c5cccnc5)C[C@H]34)cc2)c1	7	6	1.0
40	CN1c2ccc(-c3ccc(F)cc3)cc2[C@H]2[C@H](CCN2C(=O)Nc2ccc(F)cc2)[C@H]1CO	?	.	.
41	CCc1cnc(N2[C@@H](C#N)[C@@H](c3ccc(C4=CCCCC4)cc3)[C@@H]2CO)s1	-3	0	-2.9
42	COc1cccc(S(=O)(=O)N2CCCCN3[C@H](C2)[C@H](c2ccc(C#CCC(C)C)cc2)[C@@H]3CO)c1	?	.	.
43	COc1ccc(C#Cc2ccc([C@H]3[C@@H](CO)N4C(=O)CN(C(=O)Nc5ccccc5F)C[C@@H]34)cc2)cc1	-5	0	-4.5
44	COc1ccc2c3c([nH]c2c1)[C@@H](CO)NCC31CCN(Cc2ccc(F)cc2)CC1	-6	8	-14
45	C[C@@H]1CN([C@@H](C)CO)C(=O)c2cc(NC(=O)CCN3CCOCC3)ccc2O[C@H]1CN(C)Cc1ccc(C(F)(F)F)cc1	4	3	1.3
46	C[C@H]1CCCCO[C@H](CN(C)C(=O)Cc2ccccc2)[C@@H](C)CN([C@@H](C)CO)C(=O)c2cc(NC(=O)c3ccncc3)ccc2O1	7	4	3.2
47	C[C@@H]1CN([C@@H](C)CO)C(=O)CCCn2cc(nn2)CO[C@H]1CN(C)C(=O)CCC(F)(F)F	-2	-1	-1.0
48	O=C(c1ccccc1)N1C[C@H]2[C@@H](c3ccccc31)[C@@H](CO)N2Cc1ccccn1	-1	0	-0.8
49	COc1ccc(-c2ccccc2[C@H]2[C@@H](C#N)N(C(=O)NC3CCCCC3)[C@H]2CO)cc1	?	.	.
50	COCC(=O)Nc1ccc2c(c1)OC[C@H](C)N(C(=O)CC1CC1)C[C@@H](C)[C@@H](OC)CN(C)C2=O	0	-1	0.9
51	C[C@@H]1CN([C@H](C)CO)C(=O)CCCn2nncc2CO[C@H]1CN(C)Cc1ccc(Oc2ccccc2)cc1	-5	0	-4.6
52	COc1ccc(S(=O)(=O)Nc2ccc3c(c2)CC(=O)N([C@@H](C)CO)C[C@H](C)[C@H](CN(C)C(=O)Nc2c(C)noc2C)O3)cc1	-1	-1	-0.2
53	O=S(=O)(c1ccc(-c2ccccc2)cc1)N1[C@@H]2CNC[C@H]1C2c1ccc(-c2ccccc2)cc1 (stereo partly specified)	9	10	-1.2
54	O=C(C[C@H]1CC[C@H](NC(=O)CN2CCOCC2)[C@H](CO)O1)NCCc1ccncc1	2	1	1.4
55	COc1ccc2c3c([nH]c2c1)[C@@H](CO)N(CC1CC1)CC31CN(C(=O)c2cccc(F)c2)C1	?	.	.
56	COc1cccc(NC(=O)Nc2ccc3c(c2)C(=O)N(C)C[C@H](OC)[C@@H](C)CN(CC2CC2)[C@H](C)CO3)c1	-9	-5	-4.0
57	CCNC(=O)[C@H]1[C@H](CO)[C@H]2Cn3c(ccc(-c4cncnc4)c3=O)[C@H]2N1Cc1ccc2c(c1)OCO2	1	-2	2.3
58	COc1ccc(C(=O)N2C[C@H]3[C@@H](c4ccccc42)[C@H](CO)N3Cc2ccc3c(c2)OCO3)cc1	2	2	0.4
59	CCS(=O)(=O)N[C@@H]1C=C[C@@H](CC(=O)NCC2CCCCC2)O[C@@H]1CO	2	1	0.2
60	CCC(=O)N1C[C@@H](O)COC[C@@H]2O[C@@H](CC(=O)NC)CC[C@H]21	12	1	11

Full records from above. Values in the order: DUX4 inh | DUX4 inh difference | DUX4 inh control
COc1cccc(NC(=O)Nc2ccc3c(c2)C(=O)N(C)C[C@H](OC)[C@@H](C)CN(CC2CC2)[C@H](C)CO3)c1 in the list: -9 | -5 | -4.0
CCNC(=O)C[C@@H]1CC[C@H]2[C@@H](COc3ccc(NC(=O)c4ccc5c(c4)OCO5)cc3C(=O)N2C)O1 in the list: 6 | 4 | 2.6
Cc1ccccc1S(=O)(=O)N1CC(=O)N2[C@@H](CO)[C@H](c3ccc(C#CC4CC4)cc3)[C@@H]2C1 in the list: 12 | 4 | 8.4
COCC(=O)Nc1ccc2c(c1)C(=O)N(C)[C@H]1CC[C@@H](CC(=O)NCc3ccccc3Cl)O[C@H]1CO2 in the list: 0 | -1 | 0.6
CC(=O)N1[C@@H]2Cn3c(ccc(-c4ccccc4)c3=O)[C@H]1[C@@H](C(=O)N1CCN(C)CC1)[C@@H]2CO in the list: 9 | 7 | 2.0

Next section:
no.	structure	DUX4 inh	DUX4 inh difference	DUX4 inh control
61	CN(C)C(=O)C[C@@H]1C[C@H]2c3cc(NC(=O)Nc4ccc(F)cc4)ccc3O[C@H]2[C@H](CO)O1	11	7	3.8
62	COCC(=O)N1CC(=O)N2[C@H](CO)[C@@H](c3ccc(-c4ccccc4)cc3)[C@H]2C1	12	6	6.6
63	COc1ccccc1-c1ccc([C@H]2[C@@H](CO)N(C(=O)NC(C)C)[C@H]2C#N)cc1	2	-3	5.4
64	COCC(=O)NC[C@@H]1[C@@H](c2ccc(-c3ccccc3)cc2)[C@H](CO)N1C(C)=O	2	-3	4.3
65	O=C([C@@H]1[C@@H](CO)[C@@H]2Cn3c(cccc3=O)[C@H]1N2CC1CCCCC1)N1CCOCC1	-5	0	-5.1
66	O=C(c1ccc2c(c1)OCO2)N1CCCCN2[C@H](CO)[C@H](c3ccc(-c4ccccc4)cc3)[C@H]2C1	?	.	.
67	O=S(=O)(c1ccc(F)cc1)N1CC[C@@H]2[C@H]1c1cc(C#CC3CCCCC3)ccc1N[C@@H]2CO	1	-6	7.2
68	CC=Cc1ccc2n(c1=O)C[C@@H]1[C@@H](CO)[C@H](C(=O)N(C)C)N(CC3CC3)[C@H]21 (mixture of isomers)	-2	-7	4.8
69	CCC(=O)N1CC2(C1)CN(C(=O)CN1CCOCC1)[C@@H](CO)c1c2c2ccc(OC)cc2n1C	17	-8	25
70	Cc1cccc(S(=O)(=O)N[C@@H]2CC[C@H](CCn3cc(-c4ccccn4)nn3)O[C@@H]2CO)c1	5	7	-2.1
71	N#C[C@H]1[C@@H](c2ccc(/C=C/c3ccccc3)cc2)[C@@H](CO)N1C(=O)C1CC1	-1	0	-1.4
72	CNC[C@H]1OCCCC[C@@H](C)Oc2ccc(NC(=O)Nc3c(C)noc3C)cc2C(=O)N([C@@H](C)CO)C[C@H]1C	1	3	-2.2
73	O=C(C[C@@H]1CC[C@@H]2[C@H](COC[C@@H](O)CN2Cc2nccs2)O1)NCc1ccccc1Cl	1	6	-5.2
74	C/C=C/c1ccc2c(c1)[C@H]1[C@H](CCN1C(=O)C1CCCC1)[C@@H](CO)N2	20	21	-1.4
75	COc1ccc(-c2ccccc2[C@@H]2[C@@H](C#N)N(C(=O)NC3CCCCC3)[C@H]2CO)cc1	?	.	.
76	CS(=O)(=O)Nc1ccc2c(c1)[C@@H]1C[C@H](CC(=O)NCC3CC3)O[C@@H](CO)[C@@H]1O2	5	4	0.6
77	CC=Cc1ccc2n(c1=O)C[C@@H]1[C@@H](CO)[C@H](C(=O)NCC)[C@H]2N1C(C)=O (mixture of isomers)	12	3	8.4

Screening data (PubChem)
